# HSV replic up = increases HSV replication in cells. maximum fold increase. hit rate 0.005% among 220,000. HSV replication augmentation in cells, fold increase;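 active = peak rise of 1.5-fold or more in the series; tested in PC3 cells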;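 also: first round at 10 µM; read as green reporter fluorescence; hits show the peak of a series up to 25 µM; 1 = signal of infected wells without compound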
# GALR2 ag = GALR2 (human) receptor agonism; O43603; GALR2-expressing cells, agonist activation read-out; activation, %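 (tested at 5 µM)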; hit rate 0.48% among 140,000; AID 803;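 active = above mean plus 3 SD of all compounds, about 5% in these data, not always enough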;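 also: 0% = vehicle buffer wells and 100% = reference agonist at full effect; tested in CHO reporter cells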
# RGS16-Gao HTS = modulates binding between human RGS16 and Galphao; bead-based flow cytometry RGS16-Galphao binding, fluorescence; actives lie on both sides; binding response (% of control), % at 10 µM; hit rate 0.38% among 220,000; O15492+P09471;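 active = below 25% or above 175%, edge rows of some plates excepted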;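 also: Galphao activated by GDP with aluminum fluoride before binding; 100% = wells without compound and 0% = beads without RGS; some results beyond the cut were filed as inactive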
# Insulin prom inh = TRM-6 insulin promoter activity inhibition. TRM-6 cells (human fetal islet line), insulin promoter-eGFP reporter, imaging; reporter expression induced with tamoxifen. inhibition, % at 2 µM. hit rate 0.9% among 130,000;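 active = inhibition above the mean plus 3 SD, with well images judged a real hit on visual review, cut at about 60% in these data, passing the limit was not always enough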
# PKD1 kinase inh = blocks activity of human protein kinase D1; Q15139; PKD1 kinase fluorescence polarization assay; inhibition, %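 (about 10 µM by stock and volumes)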; hit rate 0.056% among 200,000;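 active = inhibition of 50% or more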;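 also: controls were vehicle for no effect and a reference inhibitor for full effect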
# Target sequence (Q15139 whole entry, looked up): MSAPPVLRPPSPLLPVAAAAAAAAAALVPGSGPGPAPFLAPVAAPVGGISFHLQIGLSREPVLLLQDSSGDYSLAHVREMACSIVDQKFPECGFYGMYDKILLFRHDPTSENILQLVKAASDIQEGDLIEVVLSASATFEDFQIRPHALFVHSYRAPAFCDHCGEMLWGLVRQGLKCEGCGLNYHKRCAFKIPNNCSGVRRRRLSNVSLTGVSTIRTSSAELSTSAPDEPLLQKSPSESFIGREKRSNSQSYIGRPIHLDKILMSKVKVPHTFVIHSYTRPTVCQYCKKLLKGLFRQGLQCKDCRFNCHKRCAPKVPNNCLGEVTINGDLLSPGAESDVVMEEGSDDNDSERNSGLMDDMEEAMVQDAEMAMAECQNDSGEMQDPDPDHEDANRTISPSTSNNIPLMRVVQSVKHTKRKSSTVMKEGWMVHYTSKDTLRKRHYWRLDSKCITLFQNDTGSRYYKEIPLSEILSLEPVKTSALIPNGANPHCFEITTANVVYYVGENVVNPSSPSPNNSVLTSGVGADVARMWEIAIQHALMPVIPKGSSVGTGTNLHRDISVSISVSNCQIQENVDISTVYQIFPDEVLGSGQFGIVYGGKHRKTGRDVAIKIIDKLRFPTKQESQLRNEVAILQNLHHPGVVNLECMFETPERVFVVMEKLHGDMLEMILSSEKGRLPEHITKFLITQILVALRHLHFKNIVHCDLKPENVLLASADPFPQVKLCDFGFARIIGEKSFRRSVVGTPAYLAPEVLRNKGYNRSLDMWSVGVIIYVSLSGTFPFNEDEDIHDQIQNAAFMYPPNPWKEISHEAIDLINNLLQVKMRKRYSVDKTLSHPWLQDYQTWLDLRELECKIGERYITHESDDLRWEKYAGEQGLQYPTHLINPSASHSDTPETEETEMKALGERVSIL
# Insulin prom inh cell count = further read-out of Insulin prom inh, marked with its call; normalized cell count, %; measured here: cell count, toxicity; reference of the scale not given here;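 cells exposed to compound for 48 h; stained nuclei by imaging scaled within each plate; lower means fewer cells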
# HSV replic up primary fold = also measured in HSV replic up; calls as there; fold increase; compound at 10 µM; measured here: primary screen fold increase 10 uM; tested in PC3 cells;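 GFP signal in the first replicate; 1 = infected wells without compound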
# * hit, by the source's call; i = inactive; / = no result given.
SMILES,HSV replic up,HSV replic up primary fold,GALR2 ag,RGS16-Gao HTS,Insulin prom inh,Insulin prom inh cell count,PKD1 kinase inh
CCCn1c(Nc2ccccc2C)nc2ccccc21,i,0.87,-2.3,98,58,98,-1
Cc1ccc2c(CC(=O)NCC(C)(C)N3CCOCC3)coc2c1,i,0.97,/,105,14,89,-4
COc1ccc(CC(=O)OCc2nnc(C3COc4ccccc4O3)o2)cc1OC (centres undefined),i,0.9,-2.0,106,19,154,3
O=C(NCc1ccncc1)C1CCCCC1,i,0.94,-2.9,100,43,58,1
Cc1ccccc1N1C(=O)CN(Cc2sccc2C)C1=S,i,0.86,-0.8,98,-84,114,0
Cc1ccc(S(=O)(=O)N2CCCN(c3nccc(C(F)(F)F)n3)CC2)cc1,i,0.96,/,94,/,/,/
Cc1cc(Cl)ccc1OCC(=O)NCCOC(=O)Nc1sc(=S)n(C)c1C,i,1,-2.9,102,-16,107,16
CC1=C(C(=O)OC(C)C)C(c2cccnc2)C2=C(CCCC2=O)N1 (centres undefined),i,0.89,1.1,104,-73,41,5
Cc1cc(S(=O)(=O)Nc2c(C)ccc3nsnc23)ccc1F,i,0.9,-1.4,104,-350,47,5
C/C(=N\NC(=O)c1ccc2c(c1)OCO2)c1ccco1,i,0.79,/,113,38,166,-8
CC(C)(C)c1ccc(OC(=O)c2ccc3snnc3c2)cc1,i,0.87,-0.2,96,/,/,-2
CCCCC#Cc1cncc(C(=O)N/N=C/c2cccc(OC)c2)c1,i,1.1,/,82,/,/,/

# Structures shown so far with an aryl methoxy group (2):
SMILES,HSV replic up,HSV replic up primary fold,GALR2 ag,RGS16-Gao HTS,Insulin prom inh,Insulin prom inh cell count,PKD1 kinase inh
COc1ccc(CC(=O)OCc2nnc(C3COc4ccccc4O3)o2)cc1OC (centres undefined),i,0.9,-2.0,106,19,154,3
CCCCC#Cc1cncc(C(=O)N/N=C/c2cccc(OC)c2)c1,i,1.1,/,82,/,/,/

# (more compounds)
SMILES,HSV replic up,HSV replic up primary fold,GALR2 ag,RGS16-Gao HTS,Insulin prom inh,Insulin prom inh cell count,PKD1 kinase inh
Cc1onc(-c2ccccc2)c1C(=O)NNC(=S)NC(=O)c1ccc(Cl)cc1Cl,i,0.95,0.5,103,-27,105,2
Cc1ccc(Cn2c(N/N=C/c3ccncc3)nc3c2c(=O)n(C)c(=O)n3C)cc1,i,1.1,/,101,/,/,/
CC(C)CNC(=O)c1cc(-c2ccco2)on1,i,1.2,-0.3,77,-6,130,10
CS(=O)(=O)N1CCN(c2ccc(NC(=O)C(c3ccccc3)c3ccccc3)cc2)CC1,i,0.75,-1.8,63,56,107,-1
O=C1C(=O)c2ccccc2C([O-])=C1[n+]1ccccc1,i,0.92,/,106,/,/,/
Cc1cc(C)cc(NS(=O)(=O)c2ccc3[nH]c(=O)[nH]c3c2)c1,i,0.9,-0.9,93,14,82,-6
Cc1ccc(C(=O)N[C@@H](C)CN2C3=NC[C@H](C)N3C[C@H]2Cc2ccc(O)cc2)cc1Br,i,1.2,/,92,/,/,/
Cc1ccc(-n2c(=O)c3sccc3n(CC(=O)NC3CCCCC3)c2=O)cc1,i,0.78,/,95,13,115,-4
Cc1oc(C(C)(C)C)cc1-c1cc(NC(=O)c2ccc([N+](=O)[O-])cc2)n[nH]1,i,0.74,/,98,/,/,/
O=C(NC(=S)NCCCN1CCOCC1)c1ccc(Br)cc1,i,0.93,/,120,8,37,6
O=C(COc1ccc2ccccc2c1)N1CCN(C(=O)c2cccnc2)CC1,i,0.84,-4.0,104,27,140,1
CCOC(=O)C1=C(C)Nc2ccc(C)cc2S1,i,0.86,-2.2,100,-71,206,-12
Cc1cc(NC(=O)CCCSc2nc(-c3ccco3)cc(C(F)(F)F)n2)n(-c2ccccc2)n1,i,0.83,-0.2,142,-81,70,1
Nc1nc(CN2CCN(Cc3ccc4c(c3)OCO4)CC2)nc(Nc2ccccc2)n1,i,0.84,-3.7,206,-27,152,3
N#CN=C1CCCCCN1CC(N)=O,i,0.96,-3.8,104,24,74,-5
C=CCn1c(SCC(=O)N2CCN(C(=O)c3ccco3)CC2)nc2sc(CC)cc2c1=O,i,1.1,-1.2,96,27,75,-19
Cc1cccc(OCC(=O)NNC(=O)CCc2ccccc2)c1,i,1,/,98,/,/,3
COc1ccc(CNC(=O)C2CSCCS2)cc1 (centres undefined),i,0.88,-0.6,105,/,/,-10
O=S(=O)(NCCC1=CCCCC1)c1cccc(S(=O)(=O)N2CCOCC2)c1,i,1,-0.9,105,23,105,-1
Cc1oc2c(c1C(=O)c1ccccc1)C(=O)C(=O)c1ccccc1-2,i,0.36,-1.8,92,-69,182,0
Cc1c(NC(=O)c2cc(-c3ccc(O)cc3)on2)c(=O)n(-c2ccccc2)n1C,i,0.93,/,104,/,/,/
O=C(Nc1ccccc1-c1nnc(SCc2ccccc2Cl)o1)c1ccccc1,i,0.92,-1.8,99,12,128,1
CC(C)c1ccc(C(C(=O)NC2CCCCC2)N(C(=O)c2ccccn2)c2cccnc2)cc1 (centres undefined),i,1,/,107,-33,164,-8
CCc1c(C)sc(NC(=S)N2CCN(S(C)(=O)=O)CC2)c1C(=O)OC,i,0.88,/,100,/,/,/
CC(C)(C)NCC(O)(c1ccc(Cl)cc1)c1ccc(Cl)cc1,i,0.83,/,102,-66,102,1
O=C(Nc1ccccc1Sc1ccccc1)c1ccccc1F,i,1.1,0.5,/,-30,61,-18
O=C(/C=C/c1cccnc1)c1cc(F)ccc1O,i,0.73,/,92,/,/,/
CCc1cc2c(=O)c(-c3nc(C)cs3)c(CCCC(=O)O)oc2cc1O,i,1.1,/,101,18,119,7
Fc1ccc(F)c(NC(=S)NCCc2ccccc2)c1,i,1,/,66,-73,56,5
CC1=NN(C(=O)CSCc2ccccc2)C(O)(c2ccc(F)cc2)C1 (centres undefined),i,0.93,/,99,/,/,3
N/C(=N\OC(=O)CCCOc1ccccc1)c1ccncc1,i,1,/,105,-10,124,-10
O=C(Nc1nnc(-c2ccc(Cl)s2)o1)C1CC1,i,1,/,100,68,124,-6
COc1ccc(/C=C2\SC(=O)N(CCn3cnnn3)C2=O)cc1,i,1.1,/,102,/,/,-10
CCOc1cc(C2NC(=O)N(C)C(C)=C2C(=O)OC)cc(Br)c1O (centres undefined),i,1.1,-0.8,95,-20,114,-7
O=P(O)(c1ccccc1)c1ccccc1O,/,/,-2.5,87,18,56,-9
CCn1cc(C(=O)NCc2ccc3c(c2)OCO3)c(=O)c2cc(S(=O)(=O)N3CCOCC3)ccc21,i,0.78,-1.2,104,/,/,-1
COC(=O)Cn1cc(C(=O)OC)cc(Br)c1=O,i,0.97,-0.7,96,/,/,-8
C=CCN=c1scc(-c2ccco2)n1/N=C/c1ccc(O)c(O)c1O,i,1.1,/,84,/,/,/
CCOC(=O)C1=C(O)/C(=C\c2ccc(CNC(=O)C(=O)Nc3ccc(C)c(C)c3)o2)N=C1C,/,/,-0.1,96,28,66,-4
CC(Oc1ccc(Br)cc1Br)C(=O)NC1CCCC1 (centres undefined),i,1,/,115,/,/,-5
COc1ccc(S(=O)(=O)N2CCC(N3CCN(c4ccccc4OC)CC3)CC2)cc1,i,1.2,/,91,/,/,/
CCc1ccccc1Nc1cc(C(=O)NCc2ccccn2)c2ccccc2n1,i,0.91,/,103,-233,30,-13
O=C(Nc1nc(-c2ccccc2)cs1)C1CCCCN1S(=O)(=O)c1ccc(Cl)cc1 (centres undefined),i,0.94,-0.9,106,-14,70,1
COC(=O)c1cccc(NC(=O)c2ccco2)c1,i,1,-3.8,109,-222,121,-11
Cc1ccc(N(CCC(=O)O)S(=O)(=O)c2ccccc2)cc1,i,0.98,-1.3,31,0,90,-7
O=C(CN1CCCCCC1)N1c2ccccc2Sc2ccc(C(F)(F)F)cc21,i,1,-0.8,81,-153,89,-2
Cc1cc(Cl)ccc1NC(=S)NCc1ccccc1Cl,i,1.1,-0.6,109,-23,86,3
Cc1ccc(C(=O)NNC(=O)CSc2n[nH]c(-c3cccnc3)n2)cc1,i,0.91,/,105,27,143,-3
COc1ccc(CC(=O)N2CC(=O)N(CCc3ccccc3)C(=O)C2)cc1,i,0.82,-1.3,107,-36,47,-8
CCOC(=O)c1[nH]c(C)c(C(=O)Nc2cc(OC)ccc2OC)c1C,/,/,0.9,108,-252,8,6
CCCc1cc(=O)oc2c(CN3CCOCC3)c(O)ccc12,i,0.9,0.3,102,9,70,-7
COc1ccc(NC(=O)c2ccc(Br)o2)cc1,i,0.99,-1.3,102,0,92,-6
COc1ccc(-n2c(Cc3cccn3C)nnc2SCC(=O)Nc2nc(C)cs2)cc1,/,/,-1.6,126,/,/,3
COc1ccc2no[n+]([O-])c2c1,i,0.85,/,108,/,/,/
CC1=C/C(=N\NC(=O)c2ccccc2)CC1,i,1,0.0,98,36,100,-4
c1ccc(-c2nc(NCc3cccnc3)c3ccccc3n2)cc1,i,1.1,-0.5,112,/,/,-4
Cc1csc2c(N(C)CCO)ncnc12,i,1.1,/,101,/,/,/
CC(=O)Nc1ccc(OCc2ccc(S(=O)(=O)Cc3ccccc3)cc2)cc1,i,1,/,101,/,/,-4
CC(O)CNc1nc2ccccc2n1CC(=O)N1CCN(Cc2ccccc2)CC1 (centres undefined),i,0.95,/,104,33,94,1
CCOC(=O)N1CCC(NC(=O)C2CCCN2C(=O)OCc2ccccc2)CC1 (centres undefined),i,1.1,0.0,107,46,124,-10
# (list continues)
SMILES,HSV replic up,HSV replic up primary fold,GALR2 ag,RGS16-Gao HTS,Insulin prom inh,Insulin prom inh cell count,PKD1 kinase inh
CC1=C(C(=O)OCC2CCCO2)C(c2ccncc2)C2=C(CCCC2=O)N1 (centres undefined),/,/,-0.5,104,3,89,-3
CCOC(=O)c1cc(-c2ccc(/C=C3/C(=O)NC(=O)C(C#N)=C3C)o2)ccc1Cl,i,1.1,-1.5,96,11,115,10
O=C(CSc1nc2ccccc2[nH]1)N1CCN(c2ccccc2)CC1,i,1.1,-1.2,100,/,/,8
Fc1ccc(NC(=S)Nc2cc(-c3ccccc3)[nH]n2)cc1Cl,i,0.8,/,95,/,/,8
COc1cccc(C(=O)CSc2nnc(-c3ccco3)n2CC2CCCO2)c1 (centres undefined),i,1.1,-2.0,97,-13,105,3
COc1cccc2sc(NC(=O)c3ccc(Br)s3)nc12,i,0.82,-3.0,92,-36,108,-2
Cc1ccc(-c2noc(N=O)c2NO)cc1,i,1.2,/,98,/,/,/
COc1ccc2oc(=O)c(C(=O)NCC3CCCO3)cc2c1 (centres undefined),i,0.97,0.1,95,/,/,-4
CC1CCN(C(=S)c2cccc([N+](=O)[O-])c2)CC1,i,0.9,/,100,/,/,-10
CCCCNc1c(C(=O)OCC)c(=O)[nH]c2ccccc12,i,0.93,-2.5,100,11,90,2
CC(C)C1=CC(=NS(=O)(=O)c2cccc([N+](=O)[O-])c2)C=C(C(C)C)C1=O,i,1.1,-1.2,104,/,/,0
COc1ccc2nc(NC(=O)c3cccc(-c4cc5ccccc5oc4=O)c3)sc2c1,/,/,3.7,96,/,/,5
Cc1ccc(CNC(=O)COC(=O)[C@@H]2CC(O)CN2S(=O)(=O)c2ccc3c(c2)OCCO3)cc1 (some centres undefined),i,0.96,-1.6,104,-7,59,-4
CN(C)c1ccc(C2Nc3ccccc3C(=O)N2CCN2CCNC2=O)cc1 (centres undefined),i,1.1,/,101,/,/,/
COc1cc(C2C(C#N)=C(C)NC3=C2C(=O)c2ccccc23)cc(OC)c1OC (centres undefined),i,1.1,-2.3,104,/,/,-7
O=C(O)c1c2c(nc3ccc(Cl)cc13)CCC2,i,0.93,/,110,/,/,-7
Cc1ccc(-c2ccc(/C=N/n3cnnc3)o2)cc1Cl,i,0.76,-3.8,100,33,121,9
CC(O)CNc1nc2c(c(=O)n(C)c(=O)n2C)n1Cc1cccc(Br)c1 (centres undefined),i,1,0.3,103,18,80,-10
Cc1cccc(OCC(=O)Nc2ccc3c(C)cc(=O)oc3c2)c1,i,0.99,0.1,105,53,113,-5
CCCCCCC#Cc1cncc(C(=O)NNC(=O)Nc2cc(Cl)cc(Cl)c2)c1,i,0.96,/,112,/,/,/
O=C(Nc1ccc([N+](=O)[O-])cc1)Nc1ccc(OC(F)F)c(Cl)c1,i,0.54,-1.3,106,45,89,-9
Cc1ncsc1CCOC(=O)C12CC3CC(CC(C3)C1)C2,i,0.96,-2.0,101,/,/,-18
CCOC(=O)N1CCC(Nc2c(-c3ccc(C)cc3)c(=O)c2=O)CC1,i,1.1,-0.5,96,8,153,-6

# 2 compounds drawn at random from those above, as already listed:
SMILES,HSV replic up,HSV replic up primary fold,GALR2 ag,RGS16-Gao HTS,Insulin prom inh,Insulin prom inh cell count,PKD1 kinase inh
Cc1ccc(-c2ccc(/C=N/n3cnnc3)o2)cc1Cl,i,0.76,-3.8,100,33,121,9
CC(O)CNc1nc2c(c(=O)n(C)c(=O)n2C)n1Cc1cccc(Br)c1 (centres undefined),i,1,0.3,103,18,80,-10
